# SARS PLpro yeast: SARS-CoV PLP inhibition in yeast; S. cerevisiae expressing SARS-CoV PLpro, growth rescue; control for the full effect not named in the record; 330,000 compounds, 0.19% hits; Potency, µM (series often up to 32.9 µM), inactives show top-dose activity, positive = growth rescue; AID 485353; active means well fitted rising curve with a large enough effect; inconclusive means small, poorly fitted or top-dose-only effect; inactive means no such curve, though single readings can be large or run the other way; also: 0% is about no effect; nearly all actives have a fitted effect of over 55% in size; growth read by luminescence after 48 h
# Cruzain noTriton: blocks cruzain activity in detergent-free assay; purified cruzain, Z-FR-AMC fluorescence, no detergent; AID 1476; Potency, µM, for inactives: max response, negative = inhibition, hits mostly inhibitors; 200,000 compounds, 2.3% hits; P25779;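 also: plate controls were enzyme without inhibitor for no effect and buffer without enzyme for full effect; nearly all actives have a fitted effect of over 40% in size; top concentration of the series not given in the record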
# Target sequence (P25779 123-467 limits assumed): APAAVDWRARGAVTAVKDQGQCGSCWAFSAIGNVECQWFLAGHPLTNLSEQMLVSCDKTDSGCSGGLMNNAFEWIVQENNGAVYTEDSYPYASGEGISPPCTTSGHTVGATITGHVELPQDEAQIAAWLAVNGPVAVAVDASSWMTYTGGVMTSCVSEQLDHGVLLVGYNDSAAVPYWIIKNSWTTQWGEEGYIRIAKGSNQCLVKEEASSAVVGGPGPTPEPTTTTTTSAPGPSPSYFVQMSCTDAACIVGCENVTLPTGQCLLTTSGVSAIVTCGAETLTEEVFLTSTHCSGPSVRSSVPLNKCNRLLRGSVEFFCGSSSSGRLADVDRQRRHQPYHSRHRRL
#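 Purified cruzain at 1.5 nM, pre-incubated 15 min with compound at room temperature in 100 mM sodium acetate pH 5.5, 5 mM DTT, 0.00005% Triton X-100. Reaction started with 2 uM Z-FR-AMC; AMC fluorescence increase over 60 s gives rate.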
# NS1 inh: inhibitors of influenza NS1 protein function; S. cerevisiae slowed by influenza A NS1, growth recovery by OD600; 270,000 compounds, 0.4% hits; Potency, µM (titrated, usually from 46.1 µM), without a hit: at the top dose activity, positive = more growth; AID 2326; active means well fitted rising curve with a large enough effect; inconclusive means small, poorly fitted or top-dose-only effect; inactive means no such curve, though single readings can be large or run the other way; also: nearly all actives have a fitted effect of over 50% in size
#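 In this qHTS, NS1 from influenza A is expressed in budding yeast, where it slows growth. Cells are switched from glucose to 2% galactose medium (pH 6.0, -URA), treated with compound, and growth recovery is read at OD600.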
# LASV entry inh: inhibitors of Lassa virus binding or cell entry | Lassa virus pseudotype entry inhibition, cell reporter; control for the full effect not named in the record | Potency, µM (highest dose often 37.9 µM), inactives show at the top dose activity change, negative = inhibition, usual class: inhibitors | 300,000 compounds, 1.2% hits; active means well fitted inhibition curve with a large enough effect; inconclusive means small, poorly fitted or top-dose-only effect, or effect the other way; inactive means flat fitted curve, though single readings scatter; tested in HEK293 cells; also: % is scaled to controls: 0 for no effect and ±100 for the full control effect; nearly all actives have a fitted effect of over 50% in size; luciferase read-out
# RE007 growth inh: less growth of the S. pombe RE007 Vpr strain; S. pombe RE007 Vpr strain, BacTiter-Glo ATP luminescence, 24 h; control for the full effect not named in the record; Potency, µM (titrated, usually from 92.2 µM), for the others: at the highest dose activity change, negative = less growth; 360,000 compounds, 0.21% hits; AID 651644; active = well fitted falling curve with a large enough effect; inconclusive = small, poorly fitted or top-dose-only effect; inactive = no such curve, though single readings can be large or run the other way;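 also: % is scaled to controls: 0 for no effect and ±100 for the full control effect; nearly all actives have a fitted effect of over 50% in size; the assay follows cell death caused by Vpr and the record does not say whether a fall means rescue or toxicity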
#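 Fission yeast RE007 carrying one integrated HIV-1 vpr copy, seeded at OD 0.01 in PMG+AL medium with 23 nL pinned compound. Grown 24 h at 30 degrees; viability read by BacTiter-Glo luminescence after 5 min.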
# StopGo reporter: FMDV 2A StopGo reporter, luciferase signal. Potency, µM (highest dose often 57.9 µM), for the others: at the top dose signal change, negative = less light. human cells with a luciferase reporter of 2A StopGo recoding; control for the full effect not named in the record. 410,000 compounds, 1.2% hits; active = well fitted falling curve with a large enough effect; inconclusive = small, poorly fitted or top-dose-only effect; inactive = no such curve, though single readings can be large or run the other way; tested in HEK293T cells; also: % is scaled to controls: 0 for no effect and ±100 for the full control effect; nearly all actives have a fitted effect of over 45% in size; luciferase light after 4 h
# Marburg entry inh: inhibitors of Marburg virus binding or cell entry; Marburg virus pseudotyped entry inhibition, cell reporter; control for the full effect not named in the record; about a third of the inactives were read at about 46 µM; Potency, µM (doses to about 37.8 µM), without a hit: top-dose activity change, negative = inhibition, usual class: inhibitors; 300,000 compounds, 1.8% hits; AID 540276; active = well fitted inhibition curve with a large enough effect; inconclusive = small, poorly fitted or top-dose-only effect, or effect the other way; inactive = flat fitted curve, though single readings scatter; tested in HEK293 cells; about a fifth of its hits are not listed in these tables; also: % is scaled to controls: 0 for no effect and ±100 for the full control effect; luciferase read-out
# Cruzain Triton: inhibitors of Trypanosoma cruzi cruzain with detergent. purified cruzain, Z-FR-AMC fluorescence, 0.01% Triton. 200,000 compounds, 0.43% hits. Potency, µM, for the others: max response, negative = inhibition, most hits filed as inhibitors. AID 1478;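 also: plate controls were neutral wells for no effect and buffer without enzyme for full effect; nearly all actives have a fitted effect of over 40% in size; top concentration of the series not given in the record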
#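 Read-out: AMC fluorescence (360 nm excitation, 450 nm emission), four reads over 2 min, first-to-third difference used. Conditions: cruzain 1.5 nM, Z-FR-AMC 2 uM, pH 5.5 acetate, 5 mM DTT, 0.01% Triton X-100.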
# An asterisk follows results filed as active; ? = inconclusive; . = not tested or not shown; & = joins results of further samples; [ ] = dose if it differs, or a comment. Unless noted, calls follow the shape of the dose curve; as a rule, active = well fitted curve in the direction sought with a large enough effect; inconclusive = small, poorly fitted or top-dose-only effect, or another doubt; inactive = no such curve, though single readings can be large; an effect the other way counts as inactive or inconclusive. Potency is read from the fitted curve at half-maximal effect.
SMILES,SARS PLpro yeast,Cruzain noTriton,NS1 inh,LASV entry inh,RE007 growth inh,StopGo reporter,Marburg entry inh,Cruzain Triton
O=C(NNC(=O)c1cc(-c2ccc(Cl)c(Cl)c2)nc2ccccc12)Nc1ccccc1,16%,?,6%,?,47%,5%,?,-7.2%
S=C(c1ccc(-c2ccc(Br)cc2)o1)N1CCOCC1,2%,.,-10%,-26%,13%,18%,?,.
COc1ccc(NC(=O)Cc2c(SC)c3ccccc3n2Cc2ccccc2)cc1,-6%,?,-2%,-25%,1%,-22%,?,3.9%
CC(c1ccccc1)C1CC(=O)N(c2cc(Cl)ccn2)C1=O (stereo not given),3%,.,1%,-1%,0%,-8%,-6%[14.2 µM],.
COC(=O)CCCCNC(=O)Nc1ccccc1,-1%,.,.,0%[46.1 µM],132%,1%,-1%[46.1 µM],.
CN1CCN(NC(=S)NC2CCCCC2)CC1,2%,11%,-8%,-10%,-12%,-17%,?,1.4%
O=C(NCCCN1CCCC1=O)c1cccc(S(=O)(=O)NCc2ccccc2)c1,3%,.,.,-2%,1%,28%,4%,.
NC(=O)Cn1nnc(-c2ccc(CN3CCCCC3)cc2)n1,0%,.,2%,.,-18%,-11%,.,.
Cc1cc(C(C)(C)C)oc1C(=O)N(CC(=O)NC1CCCC1)Cc1ccccc1,?,-7%,7%,-6%,14%,.,-18%,-7.7%
CCc1cccc(C)c1NC(=O)CSc1nc(C)c(C)o1,5%,.,14%,.,-1%,?,.,.
CCOC(=O)N1CCN(C(=O)CSc2nnc(-c3c[nH]c4ccccc34)n2CCOC)CC1,1%,0%,4%,?,8%,-4%,20%,2.2%
Cc1cc(C)cc(NC(=O)CSc2nccn2-c2ccccc2)c1,.,-4%,.,-3%[46.1 µM],.,0%,.,-4.4%
COCCCNC(=S)NNC(=O)c1cc(-c2cccnc2)nc2ccccc12,-1%,.,17%,-2%,-15%,3%,-16%,.
O=C(CCS(=O)(=O)c1cccs1)Nc1ccc(C(=O)NCc2ccccc2)cc1,1%,-7%,4%,2%,2%,-2%,?,2.8%
O=C(O)CSc1c2c(nc3cc(C(=O)Nc4ccc(F)c(Cl)c4)ccc13)CCC2,.,-9%,.,10%[46.1 µM],.,15%,?,0.1%
O=C1c2ccccc2C(=O)N1CSc1nnc(Nc2ccccc2)s1,1%,.,3%,22%,-21%,-1%,?,.
O=C(NCCc1ccc(Cl)cc1)c1cc(-c2ccccn2)nc2ccccc12,5%,.,6%,.,-7%,0%,.,.
Oc1ccccc1CN1CCN(C(O)(c2ccccc2)c2ccccc2)CC1,?,.,1%,.,-6%,-28%,.,.
CCn1c(=O)n(CCc2ccccc2)c(=O)c2c3c(sc21)CCCC3,0%,-3%,7%,11%,9%,15%,?,-1.6%
CC(C)(C)c1ccc(C(=O)C2CCCN(C(=O)c3ccccn3)C2)cc1 (stereo not given),-3%,.,-38%,.,-12%,-18%,.,.
O=C(NCc1ccco1)C1CCN(S(=O)(=O)c2ccc(-n3cnnn3)cc2)CC1,1%,15%,0%,16%,-8%,-2%,6%,3.0%
Cc1cc(CC(=O)O)n(C)c1C(=O)c1ccc(Cl)cc1,-5%,-2%&-4%&-1%&-5%,.,.,5%,-19%&-10%,.,-3.4%&-0.3%&-3.1%&-4.2%
O=Cc1c(C(=O)O)n(Cc2ccc(Cl)cc2)c2ccccc12,26%,18%,-5%,0%,0%,-18%,?,-13%
O=C(NN1CCOCC1)c1cc(-c2ccc(Cl)c(Cl)c2)nc2ccccc12,12%,?,0%,-2%,-24%,-18%,5%,-4.9%
Cc1nnc(Oc2ccc([N+](=O)[O-])cc2)c2ccccc12,2%,.,-4%,.,29%,43%[activator],.,.
COc1cccc(C(=O)Nc2nc(-c3nnn(-c4ccccc4C(F)(F)F)c3C)ns2)c1,.,2%,.,15%[46.1 µM],.,-11%,.,3.0%
C[C@]12CC[C@H](O)CC1=CCC1C2CC[C@@]2(C)C1C[C@@H]1CC(=O)O[C@@H]12 (stereo not given in full),-9%,.,.,-22%[46.1 µM],3%,?,2%[46.1 µM],.
Cc1nc2ccc(NC(=O)NCc3ccco3)cc2s1,3%,2%,-20%,61%[14.3 µM],-3%,74%[activator],?,3.8%
Nc1ccccc1C(=O)Nc1ccc(Cl)cc1Cl,-1%,.,5%,3%[46.1 µM],-12%,48%[activator],-13%[46.1 µM],.
O=C(Nc1cccc(O)c1)c1ccc(NC(=O)C2CCCO2)cc1 (stereo not given),-3%,.,-5%,?,-5%,15%,?,.

# Two of the compounds above, with two lines to a compound.
# Value order: SARS PLpro yeast, Cruzain noTriton, NS1 inh, LASV entry inh, RE007 growth inh, StopGo reporter, Marburg entry inh, Cruzain Triton
Oc1ccccc1CN1CCN(C(O)(c2ccccc2)c2ccccc2)CC1
→ ?, ., 1%, ., -6%, -28%, ., .
CCn1c(=O)n(CCc2ccccc2)c(=O)c2c3c(sc21)CCCC3
→ 0%, -3%, 7%, 11%, 9%, 15%, ?, -1.6%

# (more compounds)
SMILES,SARS PLpro yeast,Cruzain noTriton,NS1 inh,LASV entry inh,RE007 growth inh,StopGo reporter,Marburg entry inh,Cruzain Triton
O=C(NNC(=O)c1ccc(-c2ccccc2)cc1)Nc1ccccc1,.,.,.,12%[46.1 µM],6%,9%,19%[46.1 µM],.
COc1ccccc1NC(=O)c1c(NCc2ccc(C)o2)sc2c1CCCCC2,.,3%,.,1%[46.1 µM],.,-17%,.,-14%
CCOC(=O)Cc1nnc2c(Nc3ccc(Cl)cc3)nc3nonc3n12,-25%,-28%,-87%,?,9%,?,?,-9.5%
CCN(CC)C(=O)CSc1nc2ccccc2c(=O)n1Cc1ccco1,.,-4%,.,.,.,-9%,.,4.0%
Cn1c(SCc2ccccc2)nnc1-c1ccco1,1%,.,.,?,17%,14%,26%[46.1 µM],.
COC(=O)Cc1[nH]n(-c2ccccc2)c(=O)c1C=Nc1ccc(C)cc1,-3%,.,-8%,-8%[46.1 µM],-13%,-9%,?,.
COc1cc(C(C)=O)ccc1OCc1nnc(-c2ccccc2Br)o1,-4%,.,-8%,5%[46.1 µM],8%,34%[activator],?,.
CCC1(NS(=O)(=O)c2ccc(N)cc2)C(=O)N(C)C(=O)N(C)C1=O,.,.,.,?,-2%,-21%,11%,.
O=C(NCC(=O)N(Cc1ccccc1)C(C(=O)NCC1CCCO1)c1ccccc1)c1cccs1 (stereo not given),2%,6%,-7%,-1%,-8%,.,?,1.3%
COc1ccc(NC(=O)C(c2ccc(C)cc2)N(C)C(=O)CC2NC(=O)NC2=O)cc1 (stereo not given),8%,-4%,-13%,7%,20%,10%,13%,0.3%
COc1ccc(S(=O)(=O)N2CCC(NC(=O)OCc3c(Cl)cccc3Cl)CC2)cc1,0%,?,5%,4%,-22%,-22%,17%,4.3%
O=C(Nc1cccc(Cl)c1Cl)c1snnc1-c1ccccc1,15%,1%,?,?,3%,?,?,-7.1%
O=C(NCc1cccc(Cl)c1)c1oc(=O)c2ccccc2c1-c1ccccc1,.,18%,.,-16%[46.1 µM],.,-12%,-13%[46.1 µM],2.5%
CC(C)(CNC(=O)c1sc2cc(Cl)ccc2c1Cl)N1CCOCC1,-5%,.,.,-24%,-20%,-17%,13%,.
COC(=O)c1cc2nc(-c3ccc(C)cc3)cc(C(F)(F)F)n2n1,-1%,.,3%,15%,-3%,-13%,4%[46.1 µM],.
O=C(NCc1ccncc1)c1c(F)c(F)c(F)c(F)c1F,2%,-16%,1%[9.22 µM],16%,1%,-7%,?,-1.9%
O=C(O)c1cc(-c2ccc(Cl)c(Cl)c2)n(-c2ccccc2)n1,-1%,.,4%,0%,6%,-14%,8%[46.1 µM],.
Cc1cc(C)cc(N(CC(=O)Nc2ccccc2-c2ccccc2)S(=O)(=O)c2ccccc2)c1,-11%,-18%,19%,21%,10%,0%,2%,0.1%
COc1ccc(-c2oc3ncn4nc(-c5ccccc5Br)nc4c3c2-c2ccc(OC)cc2)cc1,.,0%,.,14%[46.1 µM],.,-3%,.,2.2%
O=C(NN=C1CCCC1)c1[nH]c2ccc(Br)cc2c1-c1ccccc1,0%,.,16%,?,10%,-13%,8.9µM*,.

# One compound at a time, as listed above. Values in the order: SARS PLpro yeast	Cruzain noTriton	NS1 inh	LASV entry inh	RE007 growth inh	StopGo reporter	Marburg entry inh	Cruzain Triton
# COCCCNC(=S)NNC(=O)c1cc(-c2cccnc2)nc2ccccc12 reads -1%	.	17%	-2%	-15%	3%	-16%	.
# O=C(NCC(=O)N(Cc1ccccc1)C(C(=O)NCC1CCCO1)c1ccccc1)c1cccs1 (stereo not given) reads 2%	6%	-7%	-1%	-8%	.	?	1.3%
# C[C@]12CC[C@H](O)CC1=CCC1C2CC[C@@]2(C)C1C[C@@H]1CC(=O)O[C@@H]12 (stereo not given in full) reads -9%	.	.	-22%[46.1 µM]	3%	?	2%[46.1 µM]	.
# Nc1ccccc1C(=O)Nc1ccc(Cl)cc1Cl reads -1%	.	5%	3%[46.1 µM]	-12%	48%[activator]	-13%[46.1 µM]	.
# O=C(Nc1cccc(Cl)c1Cl)c1snnc1-c1ccccc1 reads 15%	1%	?	?	3%	?	?	-7.1%

# (more compounds)
SMILES,SARS PLpro yeast,Cruzain noTriton,NS1 inh,LASV entry inh,RE007 growth inh,StopGo reporter,Marburg entry inh,Cruzain Triton
Cc1cc(C)c(NC(=O)Cn2c(=O)n(CCC(=O)NCc3ccccc3Cl)c(=O)c3sccc32)c(C)c1,.,6%,.,26%[46.1 µM],.,4%,-28%[46.1 µM],-2.6%
CN(C)CCNC(=O)c1cc2c(=O)n(C)c3ccccc3c2n1C,5%,?,5%,.,-1%,-18%,-2%,25µM*
COc1cc2c(c(OC)c1)C(c1cc(OC)c(OC)c(OC)c1)CC(=O)N2 (stereo not given),.,0%,.,-1%[46.1 µM],.,54%[activator],?,-1.6%
O=C(NCCN1CCCC1)c1ccc(Cl)cc1,-1%,.,2%,.,25%,3%,.,.
